gsp antagonist: antagonizes gsp, the McCune-Albright syndrome mutation. 340,000 tested, 0.4% active. AID 624288. gsp-mutant cells, cAMP HTRF, 30 min; control for the full effect not named in the record. Potency, µM (highest dose often 76.9 µM), inactives show at the top dose activity change, negative = inhibition, hits mostly inhibitors; active = falling curve of any shape with a large fitted effect; inconclusive = falling curve, mostly with a smaller effect; inactive = flat or rising curve; cell line not stated here;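 also: intracellular cAMP measured with PDE inhibitor Ro 20-1724 present during compound exposure; potency is read from the fitted curve at half-maximal effect; % is scaled to controls: 0 for no effect and ±100 for the full control effect; nearly all actives have a fitted effect of over 65% in size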
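G418-selected cells were plated in DMEM/10% FBS for 16-24 h at 37C, then treated with compounds plus the PDE inhibitor […] (300 uM solution added) for 30 min at 37C. Intracellular cAMP was measured by HTRF after 30 min lysis at room temperature.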
D2 agonist: human D2 receptor agonism in beta-arrestin assay. P14416. DiscoveRx PathHunter D2 beta-arrestin, luminescence, 90 min; 100% = 57 uM dopamine signal. activation, % (no concentration beside the values). 360,000 tested, 0.084% active. AID 624465; in the data active = activation above about 40%; inconclusive = about 15% to 40%; inactive = below about 15%; also: compound concentration not given in the record; the text of the record calls up to 30% inactive
Target sequence (P14416 whole entry, looked up): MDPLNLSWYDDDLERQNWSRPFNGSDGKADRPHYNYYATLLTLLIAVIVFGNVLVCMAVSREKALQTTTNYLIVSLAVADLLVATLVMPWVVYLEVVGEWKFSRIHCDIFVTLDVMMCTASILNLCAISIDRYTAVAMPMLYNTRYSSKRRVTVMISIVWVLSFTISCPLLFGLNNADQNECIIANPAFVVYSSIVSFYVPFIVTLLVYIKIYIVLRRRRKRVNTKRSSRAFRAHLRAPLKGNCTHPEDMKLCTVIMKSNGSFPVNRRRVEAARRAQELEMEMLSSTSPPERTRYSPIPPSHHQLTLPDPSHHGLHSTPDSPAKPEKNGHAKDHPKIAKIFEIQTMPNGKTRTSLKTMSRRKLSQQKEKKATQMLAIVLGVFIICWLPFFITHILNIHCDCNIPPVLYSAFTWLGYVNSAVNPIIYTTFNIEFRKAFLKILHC
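DiscoveRx PathHunter D2 beta-arrestin cells (2,100/well) attached overnight, then compound-stimulated 90 min at 37 C in HBSS/10 mM HEPES/0.1% Tween-20 buffer; beta-galactosidase complementation read by luminescence after 1 h at ambient temperature. Dopamine 57 uM final (EC100) as control.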
gsp ag: gsp mutant agonism; gsp mutant cells, cAMP HTRF, 30 min; control for the full effect not named in the record; Potency, µM (series often up to 76.9 µM), for inactives: at the top dose activation (cAMP increase), most hits filed as activators; 340,000 tested, 0.13% active; AID 624287; active = well fitted activation curve with a large enough effect; inconclusive = small, poorly fitted or top-dose-only effect, or another doubt; inactive = no such curve, though single readings can be large or run the other way; cell line not stated here;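 also: phosphodiesterase inhibitor Ro 20-1724 added with compounds to block cAMP breakdown; potency is read from the fitted curve at half-maximal effect; nearly all actives have a fitted effect of over 60% in size; about a fifth of the inactives were tested at one dose only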
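Cells stably selected in G418 were plated at 2000/well, grown 16-24 hr, then given compounds in DMSO with the PDE inhibitor […] (300 uM solution added) for 30 min at 37C; cAMP was read by HTRF.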
Menin-MLL FL inh: menin-MLL binding inhibition, fluorescein peptide | Fluorescence polarization, fluorescein-MLL peptide displacement from menin | FP activity change, % at 61.4 µM | 290,000 tested, under 10 active | AID 1766; inconclusive = falling polarisation curve, or a change in total fluorescence; inactive = total fluorescence flat and polarisation flat or rising; no compound was filed as active; the % refers to the polarisation; negative = inhibition;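 also: % of control where 0% means no effect; inhibitors lower the polarisation; unlabelled MLL peptide was the positive control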
PINK1 modulator: PINK1 expression modulation; PINK1 immunofluorescence, high-content cytometry, 24 h; Potency, µM (highest dose often 76.6 µM), for the others: at the top dose activation (PINK1 increase), hits mostly activators; 410,000 tested, 0.2% active; AID 624263; active = well fitted activation curve with a large enough effect; inconclusive = small, poorly fitted or top-dose-only effect; inactive = flat fitted curve, though single readings scatter; cell line not stated here;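 also: potency is read from the fitted curve at half-maximal effect; % of control where 0% means no effect; nearly all actives have a fitted effect of over 65% in size; a mitochondrial uncoupler was the plate control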
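Decision-based qHTS: stable cells, 24 h exposure to five compound concentrations, CCCP as control. Fixed cells stained for PINK1 plus nuclear, mitochondrial and cell markers, cytometer read.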
Sfp inh: Sfp phosphopantetheinyl transferase inhibition; Q9F4F7; Biochemical Sfp PPTase activity, qHTS; Potency, µM, for the others: max response, negative = inhibition, hits mostly inhibitors; 310,000 tested, 3.5% active; active = well fitted inhibition curve with a large enough effect; inconclusive = small, poorly fitted or top-dose-only effect, or another doubt; inactive = no such curve, though single readings can be large or run the other way;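 also: the enzyme is Sfp with the accession as filed and its product quenches rhodamine fluorescence; potency is read from the fitted curve at half-maximal effect; 0% = enzyme reaction without inhibitor and -100% = no enzyme wells; top concentration of the series not given in the record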
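Fluorescence-quenching assay with 15 nM Sfp, 5 uM rhodamine-CoA and 12.5 uM BHQ-2-labelled ybbR peptide in pH 7.6 Hepes/MgCl2 buffer. Enzyme was pre-incubated with compound for 15 min at room temperature. Rate was taken from the 30-min fluorescence change (525/598 nm).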
ClpP mod: qHTS Assay for Activators of ClpP | 340,000 tested, 1.9% active | purified B. subtilis ClpP, FRET peptide cleavage, 20 min | ATP-dependent Clp protease proteolytic subunit (Bacillus subtilis (strain 168)), P80244 | Potency, µM (titrated, usually from 57.5 µM), without a hit: top-dose activity change, negative = active | AID 651965, 2013; active = well fitted falling curve with a large enough effect; inconclusive = small, poorly fitted or top-dose-only effect; inactive = no such curve, though single readings can be large or run the other way; also: potency is read from the fitted curve at half-maximal effect; the source files actives as falling curves though it sought activators and does not explain the sign; nearly all actives have a fitted effect of over 65% in size; many hits overshoot -100%
Target sequence (P80244 whole entry, looked up): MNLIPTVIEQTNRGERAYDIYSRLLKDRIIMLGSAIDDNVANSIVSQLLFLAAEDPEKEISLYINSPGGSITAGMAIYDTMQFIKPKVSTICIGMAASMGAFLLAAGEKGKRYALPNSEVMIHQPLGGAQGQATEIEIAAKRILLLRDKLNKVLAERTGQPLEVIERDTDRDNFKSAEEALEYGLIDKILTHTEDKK
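FRET quenching reversal measured ClpP activation: 10 microg/mL B. subtilis ClpP at pH 8 with the FRET-FV decapeptide, read at 430 nm after 320 nm excitation. The 20-min minus 0-min signal was scaled between DMSO/no-enzyme wells and ADEP (5.8 microM final).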
The depositor's hits bear a star; ? = inconclusive; / = no result given; & = joins results of further samples; [ ] = dose if it differs, or a comment.

SMILES | gsp antagonist | D2 agonist | gsp ag | Menin-MLL FL inh | PINK1 modulator | Sfp inh | ClpP mod
O=C(Cn1nc(C(=O)O)c2ccccc2c1=O)NCC1CCCO1 (configuration not stated) | 12% | -1.5 | ? | 1.3 | 0.2% | 1% | -2.3%
Cc1ccc(OCC(=O)N/N=C\c2ccc(C)o2)c([N+](=O)[O-])c1 | -2% | -1.3 | -6% | -0.8 | 45µM* | 13% | /
CC(=O)c1ccc(OCCCCOc2ccc(C(C)=O)cc2)cc1 | 6% | 3.4 | -4% | 1.7 | 2.0% | 26% | 1.1%
COc1ccc(C2=NS(=O)(=O)N(C)C(C(=O)NC(C)c3ccccc3)=C2)cc1 (configuration not stated) | -9% | -5.0 | 11% | 0.9 | 2.8%&-0.5% | -3% | -7.9%&-5.5%
COc1ccc(CN2C(=O)CS(=O)CC2=O)cc1OC | -4% | 0.1 | 18% | 1.0 | 5.2%[38.3 µM] | -10% | 0.8%
Clc1ccc(/C=N/c2c(-c3ccco3)nc3ccccn23)cc1 | -5% | 3.2 | ? | -11 | -0.6%[38.3 µM] | -27% | ?
CCNC(=S)NNC(=O)c1csc2ccccc12 | 8% | -4.9 | 27% | -3.2 | -1.5%[38.3 µM] | 3% | -4.8%
CNC(=S)N(Cc1cccs1)Cc1cc2cc(OC)c(OC)cc2[nH]c1=O | 1% | -2.4 | ? | -0.8 | 3.3% | 6% | 25µM*
COc1ccc(CN2CCN(Cc3cccc(OC)c3)C(CCO)C2)cc1 (configuration not stated) | -13% | 0.4 | -13%[15.4 µM] | 3.4 | -1.7% | 5% | /
COC(=O)c1ccc(C)c(NC(=O)CCn2[nH]c(=O)ccc2=O)c1 | 11% | -0.6 | ? | / | -0.3% | / | /
Cc1ccc2[nH]c(=O)c(CN(CCCN3CCOCC3)Cc3nnnn3C3CCCC3)cc2c1 | 0% | -1.4 | ? | 1.0 | -0.7%[38.3 µM] | 15% | -14%
CC(=O)N1CCN(S(=O)(=O)c2cccc(C(=O)OCC(=O)N3CC(=O)Nc4ccccc43)c2)CC1 | / | -2.6 | 3%[15.4 µM] | 0.4 | 0.0% | 19% | /
COCCCNC(=S)N1CCCC(c2nc3cc(C)c(C)cc3[nH]2)C1 (configuration not stated) | -5% | -0.2 | -46%[inhibitor] | 2.3 | 0.9% | 18% | /
CCn1c(=O)n(CC)c2cc(NC(=O)CSc3ccc([N+](=O)[O-])cn3)ccc21 | -8% | -0.2 | 6%[15.4 µM] | -4.2 | 10.0% | 6% | /
CC(C)c1ccc(CCNC(=O)c2ccc([N+](=O)[O-])cc2)cc1 | -9% | 7.4 | 1% | 1.6 | 1.7% | -3% | /
Cc1noc(/C=C/c2ccco2)c1S(=O)(=O)N1CCC(C(=O)N(C)Cc2ccccc2)CC1 | -4% | -1.1 | -25% | ? | -5.7%[38.3 µM] | 45µM* | -6.4%
Cc1cc2c(c(=O)n1CC1CCCO1)C(c1ccc3c(c1)OCO3)C(C#N)=C(N)O2 (configuration not stated) | 1% | -2.4 | -20% | 0.6 | -0.8% | ? | 0.1%
Clc1ccc(OCCCn2cncn2)cc1Cl | 13% | -2.9 | -3% | -1.9 | 0.0% | ? | -3.5%
CN(c1ccccc1C(=O)Nc1ccc(CC#N)cc1)S(=O)(=O)c1ccccc1 | -33% | 1.9 | -1%[15.4 µM] | -0.5 | 0.5% | 19% | 13%
CC1CCN(S(=O)(=O)c2ccc(C(=O)NCc3ccc4c(c3)OCO4)cc2)CC1 | 7% | 1.1 | -8% | 5.3 | ? | 10% | -1.9%
Cn1cccc1/C=C1\SC(=S)N(NC(=O)c2ccccc2Cl)C1=O | 13% | -8.4 | -6%[15.4 µM] | ? | 2.6% | 2% | 2.9%
Cc1cccc(C(=O)Nc2ccc(C(=O)/C=C/c3cccs3)cc2)c1 | ? | -3.1 | 10% | 4.1 | -1.0% | -3% | 0.5%
CC(=O)C1=CCC(c2cccc(Cl)c2)N(S(=O)(=O)c2ccc(C)cc2)C1 (configuration not stated) | / | -5.5 | / | / | -0.6% | / | -1.2%
CCN(CC)C(=O)C1=C(C)N(Cc2ccccc2)C(=O)C(CC(=O)NC2CCCC2)C1 (configuration not stated) | / | -2.8 | -8% | / | 2.2% | / | 1.2%
Fc1ccccc1-c1nc(-c2ccncc2)no1 | 5% | 0.3 | 22% | 1.2 | -1.8% | 17% | 1.7%
SMILES | gsp antagonist | D2 agonist | gsp ag | Menin-MLL FL inh | PINK1 modulator | Sfp inh | ClpP mod
C[C@@H]1CN([C@H](C)CO)C(=O)c2cc(NC(=O)Nc3ccc(C(F)(F)F)cc3)ccc2O[C@H]1CN(C)Cc1ccc(Cl)c(Cl)c1 | 1% | 0.1 | / | / | ? | / | -16%
COc1ccc(CN2CCC(=O)N([C@H](CO)c3ccccc3)CC2)cc1 | 0% | -1.8 | -26% | -3.5 | 0.7% | 10% | 3.8%&0.0%
Cc1c(C(=O)OCC(=O)Nc2ccc(C(=O)N(C)C)cc2)oc2ccccc12 | -6% | -11 | 38% | -0.2 | -0.8% | 4% | -12%
COCCCNC(=O)C1CCCN(S(=O)(=O)c2cccc3nsnc23)C1 (configuration not stated) | 14% | -4.5 | ? | 1.3 | 0.5% | 9% | 1.7%
CC(N=Cc1ccccc1O)c1ccccc1 (configuration not stated) | -8% | -1.5 | -17% | -0.8 | 13%[38.3 µM] | 10% | -0.6%
COc1ccccc1C(=O)COC(=O)CCNS(=O)(=O)c1ccc(C)c(C)c1 | -23% | 0.9 | -26% | / | -0.6% | / | -7.8%
O=C(CC1NC(=O)NC1=O)NC1(C(=O)NC2CCCCC2)CCCCC1 (configuration not stated) | 8% | -0.5 | -15% | 2.0 | 2.6% | 9% | -1.2%
Fc1ccccc1-c1csc(=Nc2cccnc2)n1CCCn1ccnc1 | 4% | -0.4 | -28% | 8.0 | 1.3% | 6% | -0.3%
Cc1ccccc1-n1nc2c(c1NC(=O)c1ccc(S(=O)(=O)N(C)C)cc1)CSC2 | -9% | -1.2 | -33%[inhibitor] | 1.1 | / | -21% | -1.3%
CC1CC(=O)Nc2ccccc2N1S(=O)(=O)c1ccccc1 (configuration not stated) | 6% | -2.3 | 0% | -4.1 | -2.4% | -17% | -1.8%
COc1ccc(C(NC(=O)N2CC(C)OC(C)C2)C(Cl)(Cl)Cl)cc1F (configuration not stated) | 14% | -3.8 | -83%[15.4 µM] | -0.3 | 1.2% | 17% | -1.1%
O=S(=O)(c1ccccc1)c1nc(Nc2ccccc2N2CCOCC2)sc1Cl | -11% | 1.1 | -41%[inhibitor] | -0.2 | 2.9%[38.3 µM] | -5% | -0.6%
CCOC(=O)N1CCN(C(=O)Cc2ccccc2OC)CC1 | 7% | -7.7 | -11%[15.4 µM] | 6.6 | 1.2% | -4% | 0.6%
COc1ccc(C(=O)N2CCC[C@@]3(CCN(c4ccccc4)C3)C2)cc1 | / | / | / | 1.0 | 0.9% | -12% | /
O=S(=O)(NC1CCCC1)c1ccc(S(=O)(=O)N2CCN(c3ccccc3)CC2)cc1 | 8% | -3.0 | 21% | 3.9 | / | 12% | 0.6%
CC(=O)Nc1cccc(/C(C)=N/NC(=O)c2ccc(CN3CCOCC3)cc2)c1 | 10% | -2.5 | -5%[15.4 µM] | -1.9 | -0.5% | 14% | /
Cc1ccc(S(=O)(=O)NNC(=O)C2CC=CCC2C(=O)O)cc1 (configuration not stated) | 4% | -1.4 | 8%[15.4 µM] | 0.6 | 0.0% | 12% | /
O=C(NCC(=O)N(CCc1ccccc1)C(C(=O)NC1CCCCC1)c1ccncc1)c1ccco1 (configuration not stated) | -2% | -5.6 | -3% | 2.9 | -1.2% | -4% | 2.9%
COC(=O)C1=C(C)N(Cc2ccccc2)C(=O)N[C@H]1CCc1ccccc1 | -1% | -1.3 | / | -2.3[11.7 µM] | 0.1% | 7% | -0.9%
C=CCn1c(C(C)NC(=O)c2ccccc2C)n[nH]c1=S (configuration not stated) | 8% | -4.8 | 2% | -0.3 | -2.3% | -1% | -1.1%
Cc1ccc(NS(=O)(=O)c2ccc(CCC(=O)NCCCOC(C)C)cc2)cc1 | -2% | -4.3 | 9% | 2.0 | -0.3% | 2% | 1.0%
O=C(Cn1sc2ccccc2c1=O)Nc1ccccc1 | / | -8.0 | ? | / | 3.3% | / | -1.7%
O=C1N(Cc2cccnc2)C[C@@H]2C[C@@H](c3ccc4nsnc4c3)N3CCC[C@@]123 | -21% | -4.3 | 3%[15.4 µM] | 1.8 | 1.8% | -4% | /
Fc1ccc(NC(=S)N2CCCC2)cc1 | 7% | -3.1 | -18% | / | 2.3% | / | -2.6%
CCNC(=O)Nc1ccc2c(c1)c(=O)n(C)n2CC=C(C)C | / | ? | / | / | 1.5% | / | 5.0%
SMILES | gsp antagonist | D2 agonist | gsp ag | Menin-MLL FL inh | PINK1 modulator | Sfp inh | ClpP mod
C=CCN(Cc1nc(-c2ccc(OC)cc2)no1)C(=O)c1ccc2c(c1)OCO2 | -5% | -5.6 | -13%[15.4 µM] | 3.3 | 4.4% | 11% | -0.7%
COC(=O)c1c(Cl)c(Cl)c(C(=O)OC)c(Cl)c1Cl | / | / | / | -6.5 | 0.6% | -7% | /
Cc1ccc(-n2c(=O)c3sccc3n(Cc3cc(=O)n4cc(Cl)ccc4n3)c2=O)cc1F | 7% | -4.6 | 3% | 0.2 | 6.3% | 9% | ?
CCN1C(=O)[C@H]2[C@@H](c3ccc(-c4ccc(F)cc4)c(OC)c3)N3CCCC[C@@]3(C(=O)OC)[C@H]2C1=O | ? | -1.5 | / | / | 8.8% | / | -7.8%
NC(=O)c1cc([N+](=O)[O-])ccc1NCc1ccc(O)cc1 | -1% | -2.5 | / | / | 0.4% | / | 0.7%
COc1ccc(S(=O)(=O)NCc2ccc(C(=O)NCCN(C)Cc3ccccc3)cc2)cc1 | / | 2.2 | / | / | 0.4% | / | 0.5%

Screens: PubChem BioAssay, National Center for Advancing Translational Sciences (NCATS)
